# Assay outcomes from PubChem BioAssay.
# Cruzain inh noDet = blocks cruzain activity in detergent-free assay; actives 2.3% (n = 200,000); purified cruzain, Z-FR-AMC fluorescence, no detergent; Potency, µM, for inactives: max response, negative = inhibition, actives largely listed as inhibitors; AID 1476;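 also: plate controls were enzyme without inhibitor for no effect and buffer without enzyme for full effect; nearly all actives have a fitted effect of over 40% in size; top concentration of the series not given in the record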
# Target sequence (P25779 123-467 limits assumed): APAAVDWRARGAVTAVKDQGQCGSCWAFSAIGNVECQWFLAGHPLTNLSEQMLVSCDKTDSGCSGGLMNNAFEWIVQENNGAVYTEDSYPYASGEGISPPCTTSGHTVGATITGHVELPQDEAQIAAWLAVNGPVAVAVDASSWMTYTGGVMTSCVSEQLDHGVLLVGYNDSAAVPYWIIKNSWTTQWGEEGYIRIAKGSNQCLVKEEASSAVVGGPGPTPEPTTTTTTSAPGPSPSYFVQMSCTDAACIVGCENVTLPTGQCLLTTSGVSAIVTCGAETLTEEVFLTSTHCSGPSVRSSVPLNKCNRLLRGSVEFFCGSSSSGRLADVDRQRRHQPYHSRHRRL
#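 Detergent-free condition (0.00005% Triton X-100) in acetate buffer pH 5.5 with DTT. 1.5 nM enzyme and compound were pre-mixed 15 min, then 2 uM Z-FR-AMC substrate added; reaction progress from fluorescence change between first and third reads (60 s).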
# StopGo reporter = lowers the luciferase signal of an FMDV 2A StopGo reporter; human cells with a luciferase reporter of 2A StopGo recoding; control for the full effect not named in the record; AID 1159524; actives 1.2% (n = 410,000); Potency, µM (highest dose often 57.9 µM), for inactives: at the top dose signal change, negative = less light; active = well fitted falling curve with a large enough effect; inconclusive = small, poorly fitted or top-dose-only effect; inactive = no such curve, though single readings can be large or run the other way; tested in HEK293T cells; also: % is scaled to controls: 0 for no effect and ±100 for the full control effect; nearly all actives have a fitted effect of over 45% in size; luciferase light after 4 h
# LASV entry inh = inhibitors of Lassa virus binding or cell entry; AID 540256; actives 1.2% (n = 300,000); Potency, µM (highest dose often 37.9 µM), for the others: at the highest dose activity change, negative = inhibition, hits mostly inhibitors; Lassa virus pseudotype entry inhibition, cell reporter; control for the full effect not named in the record; active means well fitted inhibition curve with a large enough effect; inconclusive means small, poorly fitted or top-dose-only effect, or effect the other way; inactive means flat fitted curve, though single readings scatter; tested in HEK293 cells; also: % is scaled to controls: 0 for no effect and ±100 for the full control effect; nearly all actives have a fitted effect of over 50% in size; luciferase read-out
# NS1 function inh = blocks influenza NS1 protein function | actives 0.4% (n = 270,000) | AID 2326 | Potency, µM (titrated, usually from 46.1 µM), without a hit: at the highest dose activity, positive = more growth | S. cerevisiae slowed by influenza A NS1, growth recovery by OD600; active means well fitted rising curve with a large enough effect; inconclusive means small, poorly fitted or top-dose-only effect; inactive means no such curve, though single readings can be large or run the other way; also: nearly all actives have a fitted effect of over 50% in size
#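 Growth recovery, yeast-based: influenza A NS1 expressed in S. cerevisiae causes slow growth, and suppressors are detected by OD600. The parent strain without NS1 is used as positive control.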
# SARS PLpro yeast = SARS-CoV PLP inhibition in yeast; Potency, µM (doses to about 32.9 µM), without a hit: at the top dose activity, positive = growth rescue; actives 0.19% (n = 330,000); S. cerevisiae expressing SARS-CoV PLpro, growth rescue; control for the full effect not named in the record; active means well fitted rising curve with a large enough effect; inconclusive means small, poorly fitted or top-dose-only effect; inactive means no such curve, though single readings can be large or run the other way; also: 0% is about no effect; nearly all actives have a fitted effect of over 55% in size; growth read by luminescence after 48 h
# RE007 growth inh = less growth of the S. pombe RE007 Vpr strain. Potency, µM (top dose mostly 92.2 µM), for inactives: at the top dose activity change, negative = less growth. actives 0.21% (n = 360,000). S. pombe RE007 Vpr strain, BacTiter-Glo ATP luminescence, 24 h; control for the full effect not named in the record; active = well fitted falling curve with a large enough effect; inconclusive = small, poorly fitted or top-dose-only effect; inactive = no such curve, though single readings can be large or run the other way;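 also: % is scaled to controls: 0 for no effect and ±100 for the full control effect; nearly all actives have a fitted effect of over 50% in size; the assay follows cell death caused by Vpr and the record does not say whether a fall means rescue or toxicity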
#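 Fission yeast RE007 carrying one integrated HIV-1 vpr copy, seeded at OD 0.01 in PMG+AL medium with 23 nL pinned compound. Grown 24 h at 30 degrees; viability read by BacTiter-Glo luminescence after 5 min.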
# Cruzain Triton = inhibitors of Trypanosoma cruzi cruzain with detergent; AID 1478; purified cruzain, Z-FR-AMC fluorescence, 0.01% Triton; actives 0.43% (n = 200,000); P25779; Potency, µM, for inactives: max response, negative = inhibition, most hits filed as inhibitors;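 also: plate controls were neutral wells for no effect and buffer without enzyme for full effect; nearly all actives have a fitted effect of over 40% in size; top concentration of the series not given in the record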
#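 Detergent-containing run (0.01% Triton X-100) in acetate buffer pH 5.5 with 5 mM DTT: enzyme at 1.5 nM final, 15 min compound preincubation at room temperature, then 2 uM Z-FR-AMC substrate. Activity taken as 60 s fluorescence increase at 360/450 nm.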
# Marburg entry inh = Marburg virus entry inhibition. Marburg virus pseudotyped entry inhibition, cell reporter; control for the full effect not named in the record; about a third of the inactives were read at about 46 µM. Potency, µM (titrated, usually from 37.8 µM), inactives show at the top dose activity change, negative = inhibition, most hits filed as inhibitors. AID 540276. actives 1.8% (n = 300,000); active = well fitted inhibition curve with a large enough effect; inconclusive = small, poorly fitted or top-dose-only effect, or effect the other way; inactive = flat fitted curve, though single readings scatter; tested in HEK293 cells; about a fifth of its hits are not listed in these tables; also: % is scaled to controls: 0 for no effect and ±100 for the full control effect; luciferase read-out
# The depositor's hits bear a star; u = inconclusive; x = no result given; [ ] = another dose, or the depositor's remark. Unless noted, calls follow the shape of the dose curve; as a rule, active = well fitted curve in the direction sought with a large enough effect; inconclusive = small, poorly fitted or top-dose-only effect, or another doubt; inactive = no such curve, though single readings can be large; an effect the other way counts as inactive or inconclusive. Potency is read from the fitted curve at half-maximal effect.
SMILES,Cruzain inh noDet,LASV entry inh,RE007 growth inh,Marburg entry inh,Cruzain Triton,SARS PLpro yeast,StopGo reporter,NS1 function inh
Cc1nn(-c2cccc3cccnc23)c(=O)c2ccccc12,25%,15%,1%,u,3.6%,7%,8%,5%
CCN(C(=O)N1CCOCC1)c1ccccc1,x,7%,-6%,-1%,x,0%,-6%,1%
Cc1cc(N2CCOCC2)ccc1/C=C1\NC(=O)N(Cc2ccccc2F)C1=O,x,u,-6%,3%,x,-1%,-7%,x
O=C(NCCCNC(=O)c1ccco1)c1ccc(Cl)c(Cl)c1,x,9%[46.1 µM],-1%,0%[46.1 µM],x,2%,-4%,15%
Cc1ccc(C)c(-c2ccc(=O)n(Cc3c(F)cccc3Cl)n2)c1,-8%,-15%[46.1 µM],4%,u,-1.6%,-4%,u,-49%
Clc1ccc(C=NN2CCCCCC2)cc1Cl,x,u,-10%,6%,x,x,20%,x
CC(=O)c1c(C)[nH]c(C(=O)OCC(=O)Nc2sc3c(c2C#N)CCC(C)C3)c1C (stereo not drawn),x,u,4%,-6%[46.1 µM],x,-1%,u,-39%
O=C(NCc1cccnc1)C1COc2ccccc2O1 (stereo not drawn),7%,u,-22%,1%,1.9%,5%,7%,7%
O=c1[nH]c2cc(Cl)c(Cl)cc2o1,x,6%,-24%,3%,x,x,-21%,x
O=C(Cn1c(=O)n(-c2ccc(Cl)cc2)c(=O)c2oc3ccccc3c21)Nc1ccccc1,-5%,5%[46.1 µM],x,x,-1.1%,x,13%,x
CC(C)OC(=O)C(C(=O)C(F)(F)F)c1cc(NS(=O)(=O)c2ccc3c4c(cccc24)C(=O)N3)ccc1O (stereo not drawn),8%,-27%[46.1 µM],x,u,-15%,x,-7%,x
CN(C)C(=O)C1Cc2ccccc2CN1S(=O)(=O)c1cccs1 (stereo not drawn),x,-8%[46.1 µM],1%,-10%[46.1 µM],x,0%,4%,-1%
O=S(=O)(Cc1cc(Cl)nc(-c2ccccc2)n1)c1ccccc1,2%,0%,26%,u,-6.1%,1%,3%,4%
CCOC(=O)n1c(=O)n(Cc2ccc(Cl)cc2Cl)c2ccccc21,14%,0%,-4%,u,4.4%,-38%,u,-11%
Cc1c(N=C2NN=C(c3ccc(Cl)cc3)CS2)c(=O)n(-c2ccccc2)n1C,x,-16%,12%,7%[46.1 µM],x,-3%,4%,x
CCc1ccc(NC(=O)c2cc(S(=O)(=O)N3CCCC(C)C3)cn2C)cc1 (stereo not drawn),-7%,0%[46.1 µM],x,x,-6.4%,x,0%,x
Cc1cc(C)c2ccc(=O)n(CC(=O)N/N=C/c3ccccc3Cl)c2n1,x,1%[46.1 µM],3%,-8%[46.1 µM],x,-1%,3%,u
O=C(COc1ccccc1)Nc1ccc(Cl)cn1,x,-5%,-12%,1%[46.1 µM],x,1%,67%[activator],2%
CCOC(=O)c1c(NC(=O)c2cc(=O)c3ccc(C)cc3o2)sc(C)c1C,6%,9%[46.1 µM],x,28%[46.1 µM],0.1%,x,9%,x
CN(C)CCCNC(=O)c1cc(C(=O)c2ccccc2F)c[nH]1,x,x,-1%,x,x,-1%,-5%,2%
O=C(/C=C/c1cn(-c2ccccc2)nc1-c1cccc(Cl)c1)N1CCN(c2ccccn2)CC1,x,-26%,14%,u,x,-1%,u,4%
CCOC(=O)C1=C(N)Oc2cc(C)oc(=O)c2C12C(=O)N1c3c(cccc32)C(C)CC1(C)C (stereo not drawn),u,23%,11%,2%,2.3%,x,0%,-5%
O=C1CS(=O)(=O)c2ccccc2N1,x,u,-9%,-16%[46.1 µM],x,0%,-3%,3%
O=C(NCc1cccc(Cl)c1)C1CCC(=O)N(CCCN2CCCC2=O)C1 (stereo not drawn),x,11%,-14%,23%,x,-6%,3%,-3%
O=C(CSc1ccc2nnc(-c3ccccn3)n2n1)NCc1ccc2c(c1)OCO2,-1%,x,-9%,x,-2.7%,-18%,-7%,-108%

# Further entries follow:
SMILES,Cruzain inh noDet,LASV entry inh,RE007 growth inh,Marburg entry inh,Cruzain Triton,SARS PLpro yeast,StopGo reporter,NS1 function inh
CC(=O)N1c2ccc(S(=O)(=O)N3CCCCCC3)cc2CC1C(=O)NCc1cccc(F)c1 (stereo not drawn),-9%,-25%[46.1 µM],x,x,0.6%,x,-6%,x
Cc1ccc2nc(Nc3ccc(Br)cc3)nc(-c3ccccc3)c2c1,7%,24%[46.1 µM],x,x,0.0%,x,6%,x
CC(C)CN(CC(C)C)c1nnc(NC(=O)Cn2c(=O)oc3ccccc32)s1,1%,x,12%,x,-4.6%,2%,-12%,13%
Cc1cc(C)c(S(=O)(=O)n2cnc3ccccc32)c(C)c1,-3%,u,-5%,2%,-0.7%,2%,x,4%
CNC(=O)c1cc2cc(Cc3ccccc3Cl)ccc2oc1=O,x,u,8%,-1%,x,-1%,6%,2%
Cc1c(Cl)cccc1NC(=O)Cc1ccc([N+](=O)[O-])cc1,x,21%[46.1 µM],-12%,u,x,1%,-3%,x
O=C(CCS(=O)(=O)c1cccc2nsnc12)NC1CCCCCC1,1%,13%,2%,19%,-2.2%,1%,29%,11%
Cc1nn(-c2ccc(N3CCCC3)nn2)c(C)c1CCC(=O)NCc1ccccc1F,-3%,4%[46.1 µM],x,x,-2.3%,x,13%,x
COc1cc(C2C(=O)N(C3CCCCCC3)CC(=O)N2CCc2ccccc2)ccc1OC(C)C (stereo not drawn),9%,11%[46.1 µM],x,x,0.4%,x,-17%,x
Cc1cccc(NS(=O)(=O)c2nnc(NC(=O)CC(C)C)s2)c1,x,x,12%,x,x,1%,-7%,3%
Cc1scc(C(=O)N/N=C/c2ccc(OC(C)C)cc2)c1C,-7%,u,17%,13%,-6.0%,-6%,23%,-13%
c1ccc2c(c1)N1CCCN=C1N2CCN1CCCCC1,x,-26%,-8%,13µM*,x,0%,-9%,7%
CC(C)CNc1cc(N2CCCC2)ccc1[N+](=O)[O-],5%,-3%,-14%,-23%,-9.5%,0%,x,-23%
Cc1cccc(-c2nc(=S)c3c(o2)CCCC3)c1,-2%,-24%,-17%,10%,-2.4%,-17%,3%,1%
COc1ccc(NC(=S)N2CCC(NC(=O)c3ccc(OC)cc3)CC2)cc1,x,7%,-9%,5%[46.1 µM],x,1%,-10%,2%
CC1(/[N+]([O-])=C/c2ccc(Cl)cc2Cl)CCCCC1=O (stereo not drawn),x,1%,3%,6%[46.1 µM],x,0%,-8%,1%
CCCN(Cc1nnc(-c2ccccc2Cl)o1)C(=O)c1cc(S(=O)(=O)N2CCOCC2)ccc1F,x,-12%,6%,-17%,x,-5%,-18%,x
CCOc1ccc2nc(NC(=O)CSc3nc(-c4ccccc4)c(C#N)c(=O)[nH]3)sc2c1,x,-3%,1%,0%[46.1 µM],x,0%,58%[activator],x
O=C(CN1C(=O)COc2ccc(S(=O)(=O)N3CCCC3)cc21)N1CCN(c2ccc(Cl)cc2)CC1,u,10%[46.1 µM],x,u,-2.2%,x,-22%,x
NC(=O)c1ccc(NC(=O)CSC2=Nc3ccccc3C3CC=NN23)cc1 (stereo not drawn),u,u,21%,26%[46.1 µM],2.3%,0%,u,20%
COc1ccc(NC(=O)COC(=O)CO/N=C(\C)c2ccc3c(c2)OCO3)cc1S(N)(=O)=O,x,12%,-7%,5%,x,-5%,-11%,x
NC1=NC(=O)/C(=C/c2cccc(F)c2)S1,x,x,-2%,x,x,2%,-4%,1%
O=C(CCl)Nc1cccc(Oc2ccccc2)c1,x,-2%,54%,u,x,3%,13µM*,x
Cc1cccc(NC(c2nnc(-c3ccccc3)o2)c2ccc(F)cc2Cl)c1C (stereo not drawn),-4%,-25%[46.1 µM],x,x,-2.5%,x,-11%,x
Cc1ccc(CNC(=O)CSc2nc(C)cs2)cc1,x,-2%,-13%,6%,x,0%,1%,x

# Next results follow.
SMILES,Cruzain inh noDet,LASV entry inh,RE007 growth inh,Marburg entry inh,Cruzain Triton,SARS PLpro yeast,StopGo reporter,NS1 function inh
COc1ccc(C(=O)NNC(=O)c2snnc2C)cc1,x,23%,-1%,-2%[46.1 µM],x,0%,11%,3%
CC(C)N1CCN(c2ccc(S(=O)(=O)N3CCOCC3)cn2)CC1,x,16%[46.1 µM],2%,12%[46.1 µM],x,-10%,-14%,12%
COc1ccc(COC(=O)C2=C(C)NC(=O)NC2c2ccccc2F)cc1 (stereo not drawn),x,x,-12%,x,x,2%,u,-1%
CCOC(=O)C1CCN(c2cc(=O)n(Cc3ccc(F)cc3)c(=O)[nH]2)CC1,-29%,x,-2%,x,-0.9%,5%,-7%,1%
O=C(Nc1nnc(-c2cccs2)o1)C1CC1,x,x,3%,x,x,3%,39%[activator],6%
Cc1onc(-c2ccc(Cl)cc2Cl)c1-c1csc(N/N=C/c2ccccc2Cl)n1,x,-26%[46.1 µM],-14%,u,x,0%,-26%,-3%
O=C(Nc1nnc(SCc2ccc(F)cc2)s1)C1CC(=O)N(c2ccc3c(c2)OCCO3)C1 (stereo not drawn),3%,3%,-13%,-8%,-6.8%,10%,-13%,20%
Cc1ccc(N2C(=O)CC(Sc3ncn[nH]3)C2=O)cc1C (stereo not drawn),u,u,u,-7%,3.3%,-46%,-10%,-58%
CCOC(=O)c1cc2c(=O)n3ccccc3nc2n(CC2CCCO2)c1=NC(=O)c1ccc(F)cc1 (stereo not drawn),-4%,16%[46.1 µM],x,-24%[46.1 µM],-3.0%,x,11%,x
CC(C)[C@H](NC(=O)OCc1ccccc1)C(=O)OCC(=O)NCCc1ccccc1,x,u,-4%,-1%[46.1 µM],x,-3%,-4%,-32%
CC(C)c1ccc(CN2C(=O)NC3(CCCCCC3)C2=O)cc1,x,-20%,4%,u,x,1%,-21%,5%
CNC(=S)NC1CC2CCCC(C1)N2Cc1ccccc1OC (stereo not drawn),x,-18%,-2%,u,x,10%,-25%,4%
COc1cccc(NC(=O)c2nn(-c3ccc(C)cc3)c(=O)n(C)c2=O)c1,20%,5%[46.1 µM],x,x,-5.7%,x,-15%,x
CC(C)Oc1ccc(CNC(=O)c2cccc(NC(=O)N3CCSc4ncccc43)c2)cc1,-20%,-21%[46.1 µM],x,x,-20%,x,u,x
